Source: PubChem (ICCB-Longwood Screening Facility, Harvard Medical School)
Sa growth 42C: inhibitors of Staphylococcus aureus growth at 42 °C. S. aureus RN4220 growth, OD600, 20 h; hits give low values. relative growth, % (concentration not given with the values). 170,000 compounds, 0.53% hits;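 active = growth at 42 °C up to 50% and 20 or more points under that at 30 °C, or under 10% at both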;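 note: 300 nL library stock went into each well; scaled to the means of positive and negative controls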
HCMV NEC inh: inhibitors of HCMV UL50-UL53 nuclear egress complex interaction; inhibition, % (no concentration beside the values); 190,000 compounds, 0.15% hits; HTRF UL50-UL53 interaction, normalized percent inhibition; AID 1918969;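 active = both replicates at 50% or more, plus weaker picks with an unusually low signal ratio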;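 note: stock transfer was 100 nL into about 20 µL; 0% = negative control wells and 100% = wells with untagged competitor protein; inactives centre near -12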
GIV Gai3 FP: inhibitors of GIV GBA-motif binding to rat Galpha-i3 | P08753 | Galpha-i3/FITC-GIV peptide fluorescence polarization, 90 min; hits give low values; scaled: aluminum fluoride 0%, vehicle 100% | percent of control (FP), % (test concentration not listed) | 210,000 compounds, 0.42% hits;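 active = replicate mean at 85% of control or lower, very high polarization wells dropped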;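 note: wells of about 15 µL received 100 nL stock; the first replicate is given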
Target sequence (P08753 whole entry, looked up): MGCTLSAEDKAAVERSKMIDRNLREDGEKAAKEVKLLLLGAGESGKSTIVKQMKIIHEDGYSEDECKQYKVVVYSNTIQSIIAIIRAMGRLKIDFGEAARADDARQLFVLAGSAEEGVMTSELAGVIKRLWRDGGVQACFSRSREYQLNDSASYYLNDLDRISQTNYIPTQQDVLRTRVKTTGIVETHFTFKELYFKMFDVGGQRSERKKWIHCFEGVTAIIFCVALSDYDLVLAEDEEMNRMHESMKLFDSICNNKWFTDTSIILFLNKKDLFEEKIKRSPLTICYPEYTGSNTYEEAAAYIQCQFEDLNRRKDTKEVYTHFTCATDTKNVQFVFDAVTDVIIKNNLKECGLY
Sa growth 42C second temp: further read-out of Sa growth 42C, marked with its call; relative growth, %; measured here: growth at 30 °C;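 optical density after 20 h as mean of two plates; 100% = untreated growth and lower means inhibition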
The depositor's hits bear a star; / = no result given.

SMILES	Sa growth 42C	Sa growth 42C second temp	HCMV NEC inh	GIV Gai3 FP
COc1ccc(CCNC(=O)C(=O)Nc2ccc(C)c(C)c2)cc1OC	127	95	/	101
C#CCN1C(=O)S/C(=C/c2ccc3c(c2)OCO3)C1=O	107	99	-22	104
O=C(N/N=C/C1=COCCO1)c1cccnc1	107	92	-28	/
Cc1nnc2c(Nc3ccc4c(c3)OCO4)nc3ccccc3n12	107	87	/	105
O=C(NCCc1nc2cccnc2n1C1CCCCC1)Nc1ccccc1Br	/	/	7	111
COc1ccc(C(=O)Cn2cnc3c(cnn3C(C)(C)C)c2=O)cc1	94	82	-22	102
Cc1cc(=O)oc2cc3c(cc12)OCCN3	89	91	-96	98
COc1ccc(N(Cc2nc3nc(C)cc(=O)n3[nH]2)S(C)(=O)=O)cc1	/	/	-10	102
COC(=O)c1ccc(OC)c(CN2C(=O)N(c3ccc(C(C)=O)cc3)S(=O)(=O)c3ccccc32)c1	138	79	/	111
COCCNC(=O)c1c(N)n(/N=C/c2ccc(OC)c(OC)c2)c2nc3ccccc3nc12	119	90	3	106
CCOc1ccc(CNC(=O)c2ccc3c(c2)nc2n3CCOC2)cc1OC	92	96	/	110
Cc1nn(-c2ccc3nnc(C)n3n2)c(C)c1CCC(=O)Nc1ccc(OC(F)(F)F)cc1	98	86	/	103
COc1ccc(Sc2ccccc2C(=O)O)c(C(=O)O)c1	104	92	0	104
Cc1cc(C)cc(N2C(=O)N(Cc3ccc(Cl)cc3)C3CS(=O)(=O)CC32)c1 (stereo unspecified)	/	/	10	96
CCOC(=O)c1cc(-c2ccc(OC)c(S(=O)(=O)NC3CC3)c2)on1	91	85	-13	108
N#C/C(=C\c1cn(Cc2ccc(C#N)cc2)c2ccccc12)C(=O)NCc1ccco1	97	101	-18	103
O=S(=O)(Nc1cccc(Cl)c1)c1cccc(-n2cnnn2)c1	102	100	-26	/
Cc1cccc(N2CCN(C(=O)Cn3cnc4onc(-c5ccc(F)cc5)c4c3=O)CC2C)c1 (stereo unspecified)	89	49	-8	108
O=C(c1cc2ccccc2cc1OCC(O)CN1CCCCC1)N1CCCCC1 (stereo unspecified)	113	90	-18	105
CSc1sc(C(=O)O)c(C)c1S(=O)(=O)c1ccc(Cl)cc1	120	85	-36	104
CCC(=O)Nc1ccc(N2CCN(C(=O)C(C)C)CC2)cc1	122	87	6	/
O=C(Nc1nccs1)C1CCN(S(=O)(=O)c2cccnc2)CC1	88	80	-4	98
Clc1ccc(OCc2nc3ccccc3[nH]2)cc1	127	80	11	100
Cc1ccccc1CNCc1cccs1	78	82	-16	98
O=S(=O)(Nc1ccccc1OC(F)F)c1cccc2nsnc12	98	84	-104	/
COCc1c(C(=O)OCC(=O)Nc2cc(-c3ccccc3)nn2-c2ccccc2)oc2ccccc12	97	96	-10	/
O=C(c1cc(-c2ccncc2)n[nH]1)N1CCCC(C(=O)N2CCN(c3ccc(Cl)cc3)CC2)C1 (stereo unspecified)	/	/	-5	106
COc1ccc(C(=O)On2c(-c3ccc(C(C)(C)C)cc3)nc3ccccc3c2=O)cc1Br	/	/	-7	105
Cc1cc(Br)ccc1OCCCN1CCN(C)CC1	105	91	-19	102
CCCCOc1cccc(C2c3c(oc4ccccc4c3=O)C(=O)N2c2ccccn2)c1 (stereo unspecified)	84	93	-18	107
N#Cc1cnc(SCC(=O)Nc2ccc(N3CCOCC3)cc2)nc1N	99	79	-7	104
CCC(=O)N1CCc2cc(CNS(=O)(=O)c3ccc(Cl)s3)ccc21	81	79	/	100
Cc1ncc(CO)c2c1OC(C)(C)OC2	95	81	-15	100
CCCS(=O)(=O)c1ncc(Cl)c(C(=O)Nc2sc3c(c2C(=O)NCC)CCCC3)n1	/	/	-16	109
CC(C)NC(=O)C1CCCN(S(C)(=O)=O)C1 (stereo unspecified)	91	91	4	102
CC(C)N(C(C)C)S(=O)(=O)c1ccccc1	99	87	-15	102
COc1ccccc1C(=O)C1C(=O)NC2(C)CC1c1cc(Cl)ccc1O2 (stereo unspecified)	97	90	/	99
O=C(NC1CC1)c1ccc(Nc2ccnc(-c3ccccc3)n2)cc1	/	/	19	108
Cc1ccc(C(=O)OCC(=O)C23CC4CC(CC(C4)C2)C3)c(O)c1	82	93	-12	/
O=C(O)CNC(=O)c1cncc(O)c1	119	82	-3	110
CCN(CC)CC(O)Cn1ccc2ccccc21 (stereo unspecified)	91	87	/	99
COc1ccc(S(=O)(=O)N2CCN(CCNC(=O)C(C)C)CC2)cc1	/	/	-27	99
CCn1cc(CCCC(=O)NCCc2ccc(Cl)cc2)c2ccccc21	95	85	/	106
CCOC(=O)c1ccccc1OCc1cc(C2Nc3ccccc3C(=O)N2c2cccc3ccccc23)ccc1OC (stereo unspecified)	/	/	-12	103
CC(C)(C)OC(=O)N1CCCN(C(=O)c2ccc(Cl)cc2)CC1	98	92	/	107
CCC(CC)c1nn2c(=O)cc(COc3ccc(NC(=O)c4cccc(Cl)c4)cc3)nc2s1	92	89	-20	104
COc1cc(OC)c(NC(=O)NCCCn2c(-c3ccncc3)nc3cccnc32)cc1Cl	/	/	-11	106
CSc1nnc(Cn2c(=O)sc3ccccc32)n1-c1cccc(Cl)c1	86	66	-36	106
c1ccc2oc(SCc3nc4c5c6c(sc5ncn4n3)CCCC6)nc2c1	97	98	-27	107
CCC(=O)n1c(=O)n(C(=O)CC)c2ccccc21	99	88	-8	/
Cn1c(SCC(=O)Nc2ccccc2)nnc1-c1ccccc1	100	90	/	104
Cc1cc(C)c2c(=O)[nH]c(SCCOc3ccccc3)nc2n1	108	112	33	/
CN1CCN(C(=O)c2cc3n(n2)CC(C)(C(=O)NC2CCCC2)N(C)C3=O)CC1 (stereo unspecified)	/	/	-8	106
O=C(COc1ccc(F)cc1)Nc1nonc1-c1ccc(Br)cc1	/	/	-18	101
O=C(CSc1nnc(-c2ccncc2)o1)NCC1CCCO1 (stereo unspecified)	/	/	-31	100
CC(=O)Nc1ccc(OC(=O)COc2cccc(C)c2)cc1	97	97	-32	102
COc1cc(CNC(=O)c2ccc3c(c2)c(C)c(C)n3Cc2cccc(C)c2)cc(OC)c1OC	121	107	/	114
COc1ccc2c(c1)c1c3n2CC(O)CN=C3CCC1 (stereo unspecified)	96	97	4	100
COC(=O)c1sc2ncn(Cc3ccc(C)cc3)c(=O)c2c1C	101	88	-27	/
COC(=O)c1c(C)[nH]c(C(=O)CSc2nc(C)nc3sc4c(c23)CCC4)c1C	/	/	5	102

Retrieved by structure from the list above (four):
SMILES	Sa growth 42C	Sa growth 42C second temp	HCMV NEC inh	GIV Gai3 FP
COc1cc(CNC(=O)c2ccc3c(c2)c(C)c(C)n3Cc2cccc(C)c2)cc(OC)c1OC	121	107	/	114
CCC(=O)n1c(=O)n(C(=O)CC)c2ccccc21	99	88	-8	/
COC(=O)c1c(C)[nH]c(C(=O)CSc2nc(C)nc3sc4c(c23)CCC4)c1C	/	/	5	102
COc1ccc2c(c1)c1c3n2CC(O)CN=C3CCC1 (stereo unspecified)	96	97	4	100

(further entries)
SMILES	Sa growth 42C	Sa growth 42C second temp	HCMV NEC inh	GIV Gai3 FP
COc1ccc2cc3c(nc2c1)N(S(=O)(=O)c1cc(C)ccc1C)CC3	/	/	-18	112
S=c1nc(C2COc3ccccc3O2)[nH][nH]1 (stereo unspecified)	93	77	-2	/
COc1ccc(OC)c(C2=NS(=O)(=O)N(C)C(C(=O)NCC3CCCO3)=C2)c1 (stereo unspecified)	/	/	-80	102
COC(=O)CC1=CC(SCC(=O)Nc2cc(Cl)c(OC)cc2OC)=Nc2ccccc2N1	/	/	-31	105
CC(C)NC(=O)C1=CC(c2ccc3c(c2)OCO3)=NS(=O)(=O)N1C	103	86	-47	106
CS(=O)(=O)n1nc(-c2ccco2)nc1SCc1ccccc1	100	83	-17	102
O=C(Nc1ccc(Cl)c(Cl)c1)Nc1ccnn1C1CCCCC1	-0.5*	-0.7*	26	/
CC(C)c1ccc(NC(=O)c2ccc(=O)n(Cc3ccccc3)c2)cc1	108	92	/	102
CCCCn1cnc2c(oc3nc4c(cc32)CCCC4)c1=O	/	/	-7	99
COc1ccc(NS(=O)(=O)c2cc(-c3cc(C)[nH]n3)ccc2OC)c(OC)c1	/	/	-7	108
Cc1ccc(-c2nc(CSCC(=O)Nc3cc(C)on3)c(C)o2)cc1	82	75	/	108
COc1cccc(CN2COc3ccc4c(-c5ccccc5)cc(=O)oc4c3C2)c1	89	59	/	100
COc1cc(/C=C2\SC(=O)N(c3c(C)n(C)n(-c4ccccc4)c3=O)C2=O)ccc1O	/	/	-28	106
CCc1ccc(NC(=O)N2CCc3cc(-c4ccc(C(=O)N5CCOCC5)cc4)ccc32)cc1	/	/	-31	105
CC1CCCCN1c1nnc(NC(=O)c2cc(-c3ccc(Br)cc3)on2)s1 (stereo unspecified)	97	59	-5	100
C[C@H](NC(=O)Cc1cccc2ccccc12)C(=O)NC1CC1	82	92	-30	/
COc1ccc(CCN=Cc2ccccc2O)cc1OC	94	95	34	100
CCC(CO)Nc1ncnc2sc(C)c(C)c12 (stereo unspecified)	81	86	-14	/
O=C(Nc1ccc(Cl)cc1)c1ccccc1	102	88	-10	108
O=C(Cn1cccc1C(=O)c1ccccc1)NC1CC1	100	82	/	102

Entries shown so far that have an NH in an aromatic ring, in the order listed:
SMILES	Sa growth 42C	Sa growth 42C second temp	HCMV NEC inh	GIV Gai3 FP
COc1ccc(N(Cc2nc3nc(C)cc(=O)n3[nH]2)S(C)(=O)=O)cc1	/	/	-10	102
Clc1ccc(OCc2nc3ccccc3[nH]2)cc1	127	80	11	100
O=C(c1cc(-c2ccncc2)n[nH]1)N1CCCC(C(=O)N2CCN(c3ccc(Cl)cc3)CC2)C1 (stereo unspecified)	/	/	-5	106
Cc1cc(C)c2c(=O)[nH]c(SCCOc3ccccc3)nc2n1	108	112	33	/
COC(=O)c1c(C)[nH]c(C(=O)CSc2nc(C)nc3sc4c(c23)CCC4)c1C	/	/	5	102
S=c1nc(C2COc3ccccc3O2)[nH][nH]1 (stereo unspecified)	93	77	-2	/
COc1ccc(NS(=O)(=O)c2cc(-c3cc(C)[nH]n3)ccc2OC)c(OC)c1	/	/	-7	108

Further structures.
SMILES	Sa growth 42C	Sa growth 42C second temp	HCMV NEC inh	GIV Gai3 FP
COc1ccc(OC)c(-c2csc(-c3c(N)c(C(=O)c4ccc(Cl)cc4)n4ccccc34)n2)c1	94	90	-19	101
Cn1c(-c2ccccc2)c(C(=O)CNCc2ccco2)c2ccccc21	94	82	-17	/
O=C1NC(c2ccccc2)(c2ccccc2)C(=O)N1Cc1ncc(-c2ccccc2)o1	103	101	3	/
COC(=O)CC1C(=O)NCCN1C(=O)c1ccc(-c2ccccc2)cc1 (stereo unspecified)	108	102	-3	/
Cc1cccc(C)c1NC(=O)CN1CCN(Cc2ccccc2Cl)S1(=O)=O	/	/	-7	98
CCCCN1C(=O)/C(=C2/C(=O)N(Cc3ccccc3)c3ccccc32)SC1=S	113	84	-25	/
NNC(=O)c1cccnc1N	92	85	-26	105
CCOc1cc(C(=O)Nc2cccc3cccnc23)cc(OCC)c1OCC	103	93	-16	106
c1ccc(-c2nc3ccccc3nc2-c2ccccn2)nc1	115	100	-73	102
Cc1cccc2sc(NNC(=O)c3ccc(S(=O)(=O)N4CCCC4)cc3)nc12	97	91	-7	101
CC(=C1C(=O)c2ccccc2C1=O)N1CCN(CCO)CC1	83	112	-12	103
COc1ccc(/C=C2\COc3ccccc3C2=O)cc1	99	82	-31	/
O=C1CC(S(=O)(=O)c2ccccc2)C(=O)N1c1cc(Cl)cc(Cl)c1 (stereo unspecified)	110	68	-9	105
Cc1c(C(=O)N2CCCC2)oc2ccc3c(c12)C(=O)CC(C)(C)O3	112	94	/	110
CCOCCCn1c(SCC(=O)Nc2cccc(OC)c2)nc2ccccc2c1=O	82	86	/	98
CC(C)n1c(Nc2ccccc2)nc2ccccc21	114	98	-16	98
CCCc1ccc(N2C(=O)CCC2=O)cc1	103	99	-2	104
COc1ccc(OC)c(NC(=S)NCc2ccccc2)c1	83	85	-9	/
Cc1c2cnc3nn(-c4ccccc4)c(=O)c-3cc2c(C)n1C	89	88	-22	100
Cc1ccc(-c2nnn3c2nc(NCCc2ccc(Cl)cc2)c2ccccc23)cc1	113	83	-20	109
CCN1C(=O)CCc2cc(NS(=O)(=O)c3ccc(Br)cc3)ccc21	/	/	-12	102
Cc1cccc(-n2ncc(C(=O)NCc3ccccn3)c2C2CCN(C(=O)OC(C)(C)C)CC2)c1	106	92	/	108
O=C(CN1CCN(Cc2ccccc2)C(=O)C1=O)N1CCc2ccccc2C1	/	/	-15	105
COc1ccc(Cl)cc1NC(=O)N1CCC(CN2CCCCCC2)CC1	125	97	/	106
COc1cc2c(C(=O)NCc3ccc4c(c3)OCO4)cn(CC(C)C)c(=O)c2cc1OC	92	76	-32	100
CC(=O)Nc1ccc(SCc2ncc(-c3ccccc3)o2)cc1	89	81	-11	/
Cc1nn(C)c2nc(OC(C)C(=O)NCc3ccc4c(c3)OCO4)cc(C(F)(F)F)c12 (stereo unspecified)	/	/	-8	106
COCCn1c(SCC(=O)c2ccc(CNC(C)=O)o2)nc2ccccc2c1=O	104	93	2	/
Cc1nc2ccccc2n1-c1ccccc1	87	69	-18	106
